# MbtI inh – inhibitors of Mycobacterium tuberculosis siderophore enzyme MbtI; inhibition, %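 (about 17 µg/mL by stock and volumes)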; 0.89% of 100,000 active; purified MbtI enzyme, fluorescence intensity read-out; P9WFX0; AID 493033;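 active means above 50% in both replicates, above 80% if mildly self-fluorescent; inactive means the rest, strongly fluorescent compounds included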;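 further: 0% = mean of negative and 100% = mean of positive controls; one replicate is shown; some compounds called inactive have numbers as strong as hits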
# Target sequence (P9WFX0 whole entry, looked up): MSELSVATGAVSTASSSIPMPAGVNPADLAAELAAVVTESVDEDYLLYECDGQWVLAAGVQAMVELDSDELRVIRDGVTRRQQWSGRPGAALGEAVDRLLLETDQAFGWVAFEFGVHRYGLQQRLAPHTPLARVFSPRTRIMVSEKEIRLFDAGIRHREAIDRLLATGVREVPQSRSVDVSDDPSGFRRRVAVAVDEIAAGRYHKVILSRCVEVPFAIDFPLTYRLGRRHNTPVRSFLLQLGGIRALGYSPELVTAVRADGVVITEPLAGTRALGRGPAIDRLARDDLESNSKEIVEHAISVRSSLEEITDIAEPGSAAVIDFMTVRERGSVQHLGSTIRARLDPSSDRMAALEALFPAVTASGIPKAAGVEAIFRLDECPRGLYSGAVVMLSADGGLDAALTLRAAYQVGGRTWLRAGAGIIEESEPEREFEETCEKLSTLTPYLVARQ
# Mtb MenB inh – blocks the Mycobacterium tuberculosis MenB enzyme; P9WNP5; MenB enzyme assay, absorbance read-out; some hits fall short of the stated cut; inhibition, %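 (about 12 µg/mL by stock and volumes)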; 0.43% of 100,000 active;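 active means mean of two replicates above 30%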;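 further: 0% = no compound and 100% = wells with inactive enzyme; the first replicate is given; strong numbers were not always called active; inactives centre near -10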
# PV pol inh – poliovirus RNA polymerase inhibition. poliovirus polymerase elongation, fluorescence polarization; stronger effect = lower value. % elongation, % (compound at 16.7 µg/mL). 0.66% of 150,000 active; in the data active means % elongation below about 90%; further: some results filed as inactive read as strong as hits
# Target sequence (P03300 1749-2209 limits assumed): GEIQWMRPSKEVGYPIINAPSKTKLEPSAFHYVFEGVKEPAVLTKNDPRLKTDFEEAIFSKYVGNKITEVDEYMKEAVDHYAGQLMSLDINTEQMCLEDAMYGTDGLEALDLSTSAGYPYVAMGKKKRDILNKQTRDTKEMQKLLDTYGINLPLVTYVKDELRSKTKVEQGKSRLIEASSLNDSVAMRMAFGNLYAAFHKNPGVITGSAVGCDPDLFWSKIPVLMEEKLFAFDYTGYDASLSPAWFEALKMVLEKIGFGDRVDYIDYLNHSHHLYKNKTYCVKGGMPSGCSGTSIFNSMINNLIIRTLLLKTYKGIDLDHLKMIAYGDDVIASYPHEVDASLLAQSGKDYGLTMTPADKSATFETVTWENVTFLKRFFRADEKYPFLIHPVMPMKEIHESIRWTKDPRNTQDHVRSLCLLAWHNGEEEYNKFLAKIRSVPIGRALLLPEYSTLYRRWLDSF
# PV pol inh intensity – also measured in PV pol inh; calls as there; % elongation; measured here: total intensity read-out; formula for this scale not given here;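 total fluorescence in place of polarization; lower means less elongation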
# Active calls of the source: *; / = no result given; & = joins results of further samples.
# Start of the data: the first 6 entries (preview)
SMILES,MbtI inh,Mtb MenB inh,PV pol inh,PV pol inh intensity
C=CCN(c1ccccc1OC)S(=O)(=O)c1cccc(C(=O)OC)c1,-3.9,-13.3,106.0,91.0
Cc1cccc(NC(=O)CSc2nc3cc(S(=O)(=O)N(C)C)ccc3o2)c1,14.2,-19.1,98.0,97.0
O=C(O)CCS(=O)(=O)Cc1ccccc1,4.3,-40.4,103.0,100.0
CC(=O)Nc1ccc2oc3ccccc3c2c1,-6.9,-9.2,102.0,105.0
COc1cc2c(cc1NC(=O)CSCC(=O)O)oc1ccccc12,15.2,-5.7,99.0,102.0
O=C1c2ccccc2C(Nc2ccc(Cl)cc2)N1Cc1ccco1 (stereo not drawn),8.4,1.6,99.0,105.0

# The list itself, repeating the preview:
SMILES,MbtI inh,Mtb MenB inh,PV pol inh,PV pol inh intensity
C=CCN(c1ccccc1OC)S(=O)(=O)c1cccc(C(=O)OC)c1,-3.9,-13.3,106.0,91.0
Cc1cccc(NC(=O)CSc2nc3cc(S(=O)(=O)N(C)C)ccc3o2)c1,14.2,-19.1,98.0,97.0
O=C(O)CCS(=O)(=O)Cc1ccccc1,4.3,-40.4,103.0,100.0
CC(=O)Nc1ccc2oc3ccccc3c2c1,-6.9,-9.2,102.0,105.0
COc1cc2c(cc1NC(=O)CSCC(=O)O)oc1ccccc12,15.2,-5.7,99.0,102.0
O=C1c2ccccc2C(Nc2ccc(Cl)cc2)N1Cc1ccco1 (stereo not drawn),8.4,1.6,99.0,105.0
COc1ccc(S(=O)(=O)N(CCC(=O)O)Cc2ccccc2)cc1,17.4,-7.7,100.0,101.0
O=C(O)c1ccccc1C(=O)N1CCC(C(=O)c2ccccc2)CC1,-0.5,-8.8,104.0,102.0
O=C(Cn1nc(C(=O)O)c2ccccc2c1=O)c1c[nH]c2ccccc12,-12.6,-17.4,103.0,111.0
Cc1ccc(OC(=O)Nc2ccccc2)cc1,-7.5,/,101.0,102.0
O=C(/C=C/c1cccc(C(F)(F)F)c1)NCc1ccccc1,0.8,/,105.0,98.0
Cc1ccc(NP(C)(=O)c2nc3c(s2)CCCC3)cc1 (stereo not drawn),32.9,3.6,97.0,103.0
N#Cc1ccc(CSC2=Nc3ccccc3CS2)cc1,1.2,-30.7,104.0,95.0
CN(Cc1ccccc1Cl)C(=O)CNC(=O)c1ccco1,-0.9,-30.3,104.0,104.0
CCOCC(=O)Nc1cccc(NC(C)=O)c1,-0.4,-7.8,98.0,101.0
O=C(NCCS(=O)(=O)N1CCN(c2ccccc2)CC1)c1ccccc1,13.2,-20.1,105.0,87.0
CC/C(=N\c1ccnn1C1CCCCC1)c1c(O)n(CCOC)c(=S)[nH]c1=O,12.1,-40.0,103.0,94.0
COc1ccc(CCNC(=O)C2CCCN(S(=O)(=O)c3cccc4nonc34)C2)cc1OC (stereo not drawn),1.0,-9.9,101.0,102.0
O=C(O)COc1ccc(CS(=O)(=O)Cc2ccc(OCC(=O)O)cc2)cc1,2.1,-19.1,100.0,102.0
Cc1ccn2c(N)c(-c3ccccc3)nc2c1,43.1,-27.5,97.0,99.0
CC(=O)Nc1c(O)[nH]c2ccc(C)cc12,1.4,6.0,103.0,96.0
CCCCC[C@H](O)/C=C/[C@@H]1[C@H]2C/C(=C/CCCC(=O)O)C[C@H]2C[C@H]1O,-16.6,2.3,103.0&103.0,103.0&102.0
Cc1nn(-c2ccc(F)cc2)c(Cl)c1/C=N/N=C1\C(=O)Nc2ccccc21,13.1,7.5,97.0,101.0
COc1ccc(/C=C2\N=C(c3ccccc3)NNC2=O)cc1,44.0,-0.6,100.0,99.0
Cc1noc(-c2ccc(OCc3cnn(-c4ccccc4)c3)cc2O)c1Oc1ccc(F)cc1,-4.0,-22.8,102.0,104.0

# Whole records, quoted from the list.
# CC(=O)Nc1ccc2oc3ccccc3c2c1 is entered as MbtI inh = -6.9; Mtb MenB inh = -9.2; PV pol inh = 102.0; PV pol inh intensity = 105.0
# CC(=O)Nc1c(O)[nH]c2ccc(C)cc12 is entered as MbtI inh = 1.4; Mtb MenB inh = 6.0; PV pol inh = 103.0; PV pol inh intensity = 96.0

# (more compounds)
SMILES,MbtI inh,Mtb MenB inh,PV pol inh,PV pol inh intensity
CCNC(=O)N(CC)Cc1nc(-c2ccc(Cl)cc2)no1,-2.8,4.7,101.0,105.0
CC1(C)S[C@@H]2[C@H](NC(=O)COc3ccccc3)C(=O)N2C1C(=O)O (stereo partly drawn) (tested in a mixture with another compound),-9.9,-9.3,100.0,102.0
CC(C)NC(=O)CCCn1c(=S)[nH]c2ccc(Br)cc2c1=O,-6.0,-14.3,101.0,96.0
CN(C)c1ccc(/C=C2\SC(=O)N(CCC(=O)Nc3ccccc3)C2=O)cc1,11.1,-26.6,106.0,137.0
CC[n+]1ccc(C)c2cc(S(=O)C(F)(F)F)ccc21 (stereo not drawn),76.8,-26.7,104.0,102.0
CCC(C)NC(=O)c1ccc(CS(=O)(=O)Cc2ccc(Cl)cc2)o1 (stereo not drawn),2.4,8.8,106.0,99.0
Cc1cc(C(=O)CSc2nc3ccccc3s2)c(C)n1C,39.1,-42.4,103.0,104.0
NC1CCc2cc(O)c(O)cc2C1 (stereo not drawn),92.5*,/,98.0,100.0
CCCCC[C@H](O)/C=C/[C@H]1[C@H](O)CC(=O)[C@@H]1C/C=C\CCCC(=O)O,-17.5,8.2,103.0&100.0,103.0&103.0
CCOc1ccc(-n2c(=O)c(C#N)cc3c(=O)n4ccccc4nc32)cc1,-4.0,-26.9,108.0,102.0
Cc1ccc2[nH]c(=O)c3cc(C(=O)NCC4COc5ccccc5O4)sc3c2c1 (stereo not drawn),83.0,-12.8,103.0,108.0
CCCCC/C=C\C[C@@H](O)/C=C/C=C/C=C\[C@@H](O)CCCC(=O)O,-8.6,-9.4,102.0&99.0,103.0&101.0
CCOc1ccc2nc(-c3nc4ccccc4s3)sc2c1,55.7,5.2,101.0,97.0
ONC=Nc1ccc2nnc(-c3ccccc3)n2n1,-4.3,1.3,101.0,99.0
N#CC1=C(N)Oc2ccccc2C12C(=O)Nc1cc(N)ccc12 (stereo not drawn),-0.9,-12.9,99.0,105.0
CCCCNC1=NCCS1,-0.8,4.9,102.0,97.0
COc1ccc(OCC2CCCNC2)cc1 (stereo not drawn),0.4,4.0,100.0,100.0
O=C(O)Cc1c(-c2ccccc2)c2cc(Cl)ccc2[nH]c1=O,0.1,-2.8,102.0,106.0
O=C1c2ccccc2C(=O)N1N=C1CCCCC1,-1.6,-50.1,103.0,103.0
CC(C)Cn1c(SCc2ccccc2C#N)nnc1-c1ccccc1F,4.8,-15.1,99.0,103.0
C/C=C/NC(=O)c1nc2c(nnn2Cc2ccc(C)cc2)c(=O)[nH]1,0.8,-14.6,102.0,103.0
O=C(O)C(Cc1ccccc1)N1C(=O)/C(=C\c2ccco2)SC1=S (stereo not drawn),10.5,-457.5,100.0,108.0
Cc1cc(NNS(=O)(=O)c2ccc(CCC(=O)O)cc2)n2ncnc2n1,17.4,6.8,105.0,102.0
COCCn1ccc2nc(SC)ncc2c1=O,13.4,13.0,98.0,97.0
COC(=O)C(O)(NC(=O)c1ccccc1)C(F)(F)F (stereo not drawn),3.2,-7.7,105.0,102.0

# Following part
SMILES,MbtI inh,Mtb MenB inh,PV pol inh,PV pol inh intensity
CS(=O)(=O)N1CCCc2cc(C(=O)Cn3cc(C(F)(F)F)ccc3=O)ccc21,-6.7,-8.8,103.0,105.0
CCN1CCO/C1=C\C=C\C1=[N+](CC)CCO1,26.9,-210.5,106.0,108.0
COc1cc2ccccc2cc1C(=O)OCC(=O)N1CCc2ccccc2C1,123.4,/,101.0,103.0
CC(=Nc1ccc(C)cc1)c1ccc(O)cc1O,17.9,-36.7,101.0,102.0
CCN(CC)S(=O)(=O)c1cc(-c2cc(C(=O)N3CCc4ccccc43)no2)ccc1OC,-13.4,-11.5,100.0,103.0
COc1ccc(C(=O)/C=C2\N/C(=N\S(=O)(=O)c3ccc(N)cc3)NC2=O)cc1,-1.9,3.4,103.0,103.0
CC(C)CC(=O)Nc1ccc(-c2csc(CC#N)n2)cc1,29.3,9.7,105.0,103.0
Cc1nc(-c2cccc(NC(=O)CN3CCCC3c3cccs3)c2)cs1 (stereo not drawn),1.2,-15.7,100.0,106.0
COc1cc(OC)c(OC)cc1C=O,-17.6,-9.2,103.0,101.0
CC1(C)COC(/C=C(\N)c2ccc(Br)cc2)=N1,/,6.6,109.0,112.0
O=C(Nc1ccc(S(=O)(=O)Nc2nccs2)cc1)N1c2ccccc2Sc2ccccc21,-3.0,3.1,101.0,96.0
Cc1nc2ccc(I)cn2c1/C=N/NCCC#N,3.8,-18.3,104.0,103.0
COc1ccccc1CC(NC(C)=O)C(=O)N1CCN(C(=O)c2cccs2)CC1 (stereo not drawn),0.8,15.6,101.0,106.0
CC(C)C(=O)Nc1cccc(-c2nc3ccccc3c(=O)o2)c1,5.1,-15.2,101.0,102.0
COc1cc(NC(=O)CC(CC(=O)O)c2ccccc2)c(C(=O)O)cc1OC (stereo not drawn),5.8,-12.4,100.0,93.0
CCNC(=S)N1CCCC(C(N)=O)C1 (stereo not drawn),/,1.7,100.0,89.0
S=C(NCCc1ccccn1)NN1C2CSC1CS2,3.4,8.6,103.0,97.0
N#Cc1cccnc1Oc1ccc(Cl)cc1Cl,-16.0,6.5,103.0,96.0
Cc1cccc(OCC(=O)N2CCc3ccccc32)c1,-10.5,-17.2,102.0,103.0
COc1ccc(N=Cc2c(O)n(C)c(=O)[nH]c2=O)cc1,-4.4,-65.8,103.0,103.0
COc1ccc(CCC(=O)Nc2ccc(/C(N)=N/O)cc2)cc1,4.0,7.8,100.0,102.0
CC(C)n1c2ccccc2c2n[nH]c(=S)nc21,39.7,-2.8,93.0,96.0
O=C(OCC(=O)N(C1CCCCC1)C1CCCCC1)c1ccc(N2CCCC2=O)cc1,-4.9,-18.1,99.0,100.0
C=CCN1C(=O)/C(=C\c2ccc(OC(=O)c3ccco3)c(OC)c2)SC1=S,-9.3,-37.3,105.0,103.0
O=C(CSc1nnnn1-c1ccc(O)cc1)c1c[nH]c(C(=O)N2CCCC2)c1,3.8,-18.7,126.0,129.0

# Additional results.
SMILES,MbtI inh,Mtb MenB inh,PV pol inh,PV pol inh intensity
O=C1NCCN1CCN1C(=O)c2ccccc2NC1c1cccs1 (stereo not drawn),106.4,-6.6,101.0,98.0
O=C(N1CCN(c2ccccc2)CC1)C(F)(F)F,/,-4.7,102.0,106.0
CC(C)NC(=O)CSc1nnc(-c2cccs2)n1C,-4.0,-9.0,108.0,110.0
CCN(CC)S(=O)(=O)c1ccc(Nc2ncnc3c2nc2n3CCCCC2)cc1,-110.5,-11.3,101.0,103.0
O=C(CNc1ccc2c(c1)oc1ccccc12)c1ccc(F)cc1,/,3.2,104.0,108.0
CC1=NC(=O)CN1c1ccc(N)cc1,-20.9,-24.1,100.0,102.0
O=C(NC1CCCCC1)N1CC=C(c2ccccc2)CC1,10.6,18.1,102.0,102.0
O=C(CCc1ccccc1)Nc1ccccc1,-11.2,-11.1,100.0,102.0
CCC(CO)NC(=S)Nc1c(Cl)cccc1Cl (stereo not drawn),11.2,9.2,100.0,103.0
CCCCn1c(C)csc1=Nc1ccccc1,0.2,0.7,100.0,99.0
Cc1ccc(NC(=O)COC(=O)CC2CCCC2)cc1F,-39.2,-31.2,106.0,93.0
CC(NC(=O)CSc1ccccc1Cl)c1ccccc1 (stereo not drawn),14.5,/,100.0,98.0
CC(=O)Nc1ccccc1C(=O)N(Cc1ccccc1)Cc1ccccc1,-4.2,-1.2,103.0,106.0
CC(C)C(NS(=O)(=O)c1ccc2c(c1)CCCC(=O)N2)C(=O)NC1CCCC1 (stereo not drawn),-8.9,4.2,100.0,103.0
CCCN(CCC)C(=O)c1cc2sc3ccccc3c2s1,-5.8,-15.1,106.0,106.0
O=C(CSc1nnc(NC2=NS(=O)(=O)c3ccccc32)s1)N1CCOCC1,3.4,0.3,101.0,101.0

# Exported with two lines to a compound: entries from further up
# Value order: MbtI inh	Mtb MenB inh	PV pol inh	PV pol inh intensity
- O=C(O)CCS(=O)(=O)Cc1ccccc1
→ 4.3	-40.4	103.0	100.0
- CC(=O)Nc1ccc2oc3ccccc3c2c1
→ -6.9	-9.2	102.0	105.0
- COc1cc2c(cc1NC(=O)CSCC(=O)O)oc1ccccc12
→ 15.2	-5.7	99.0	102.0
- O=C1c2ccccc2C(Nc2ccc(Cl)cc2)N1Cc1ccco1 (stereo not drawn)
→ 8.4	1.6	99.0	105.0
- COc1ccc(S(=O)(=O)N(CCC(=O)O)Cc2ccccc2)cc1
→ 17.4	-7.7	100.0	101.0
- O=C(O)c1ccccc1C(=O)N1CCC(C(=O)c2ccccc2)CC1
→ -0.5	-8.8	104.0	102.0
